Screens from PubChem.
HNF4A DNA FP: change in binding of human HNF4 alpha to DNA; P41235; activity change, % at 10 µM; HNF4a-FITC DNA binding, fluorescence polarization, 1 h; 360,000 tested, 0.3% active; in the data active means activity change above about 30%, passing the limit was not always enough;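 further: controls were the assay level and a saturating level of protein; the project sought stronger binding though the title names inhibitors; some compounds called inactive have numbers as strong as hits; positive values seem to mean higher polarization but the record does not say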
Target sequence (P41235 whole entry, looked up): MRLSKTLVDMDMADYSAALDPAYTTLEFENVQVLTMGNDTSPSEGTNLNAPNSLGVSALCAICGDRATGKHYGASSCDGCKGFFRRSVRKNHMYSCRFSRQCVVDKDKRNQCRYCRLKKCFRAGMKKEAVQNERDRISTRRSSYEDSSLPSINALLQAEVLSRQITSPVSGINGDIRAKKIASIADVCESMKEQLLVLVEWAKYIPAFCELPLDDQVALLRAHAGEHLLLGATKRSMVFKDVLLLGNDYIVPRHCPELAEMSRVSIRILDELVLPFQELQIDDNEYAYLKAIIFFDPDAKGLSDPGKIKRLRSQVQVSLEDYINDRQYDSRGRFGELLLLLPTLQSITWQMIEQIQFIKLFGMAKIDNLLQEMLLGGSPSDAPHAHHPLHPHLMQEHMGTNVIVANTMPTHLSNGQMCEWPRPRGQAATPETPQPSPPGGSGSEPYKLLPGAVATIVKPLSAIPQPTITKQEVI
MLL AF4-AF9 inh: MLL-AF4/AF9 protein interaction inhibition; AID 651704; inhibition, % at 10 µM; AlphaScreen, biotin-AF4 peptide binding to FLAG-AF9; 350,000 tested, 0.47% active; P42568;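 active means every replicate reaching a set inhibition limit, whatever the replicate mean, cut at about 25% in these data; inconclusive means mean inhibition reaches that limit but some replicates miss it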;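 further: 0% = plate neutral control median and 100% = total signal loss; the record names both 10 and 1 µM as test concentration; the first replicate is given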
rRNA inh HTS: inhibits bacterial ribosomal RNA function over humanized ribosomes; 350,000 tested, 1.6% active; GFP signal change (wild-type ribosome), % (no concentration beside the values); AID 720706; E. coli WT GFP vs humanized-ribosome RFP mutants, fluorescence, 24 h; hits give low values; DMSO median 0, no signal -100;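 active means significant combined selectivity score with lowered wild-type GFP, culture density cut under 30%, mutant RFP and density less affected; inactive means any of these conditions unmet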; further: one replicate is shown; some compounds called inactive have numbers as strong as hits
ALR inh: blocks human ALR sulfhydryl oxidase activity; P55789; purified ALR, DTT oxidation, H2O2 HRP-luminol luminescence; inhibition, % (no concentration beside the values); 290,000 tested, 3.8% active; AID 485317;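 active means mean and each replicate at 75% or more; inconclusive means only one of the two met; inactive means neither met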;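 further: stock transfer was 7.5 nL into about 7.5 µL; 0% = neutral wells and 100% = wells with inactivated enzyme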
Target sequence (P55789 whole entry, looked up): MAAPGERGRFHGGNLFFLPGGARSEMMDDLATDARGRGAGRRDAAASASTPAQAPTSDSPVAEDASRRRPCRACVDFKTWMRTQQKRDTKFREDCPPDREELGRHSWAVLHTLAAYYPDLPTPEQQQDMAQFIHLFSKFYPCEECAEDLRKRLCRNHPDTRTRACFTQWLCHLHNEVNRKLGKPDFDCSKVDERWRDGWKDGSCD
Vif A3G: HIV-1 Vif–A3G interaction blockers – biochemical, TR-FRET, GST-Vif 1-94, biotin-A3G peptide, dose response retest, primary screen (AID 1117319); TR-FRET GST-Vif / biotin-A3G peptide binding; higher % means a stronger effect; test concentration not given here; strong numbers were not always called active; one-dose inhibition, %; IC50 in µM for titrated hits; 260,000 tested, 0.57% active;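 active means above the screen mean plus three standard deviations and confirmed in dose response; inconclusive means results disagree or hit not tested in dose response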;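 further: Vif residues 1-94 fused to GST binding biotinylated APOBEC3G peptide 110-148; 0% = full assay without inhibitor and 100% = GST in place of GST-Vif; retest series ran down from 100 µM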
Ecoli growth: blocks Escherichia coli growth | OD600 absorbance (no concentration beside the values) | 330,000 tested, 0.21% active | OD600, 23 h; hits give low values;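 active means OD600 absorbance below the run mean of sample wells minus 3.6 SD, in any replicate, cut at about 0.56 in these data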;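 further: stock transfer was 300 nL into about 60 µL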
FGF22 binding: FGF22 (human) thermal shift binding; Q9HCT0; calls only at 9.99 µM; AID 651658; 340,000 tested, 1.5% active; recombinant FGF22 thermal shift, SYPRO orange fluorescence; percent of sucrose octasulfate shift, DMSO zero;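 active means melting point raised past a set limit in the mean and every replicate; inconclusive means no clear call; three in four hits are not shown here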
Target sequence (Q9HCT0 whole entry, looked up): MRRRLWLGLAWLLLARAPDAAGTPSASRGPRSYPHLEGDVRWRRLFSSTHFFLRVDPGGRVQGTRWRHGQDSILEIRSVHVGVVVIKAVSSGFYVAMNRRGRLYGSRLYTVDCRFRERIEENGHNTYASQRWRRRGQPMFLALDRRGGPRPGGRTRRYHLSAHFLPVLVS
rRNA inh HTS OD600: further read-out of rRNA inh HTS, marked with its call; OD600 change, %; measured here: OD600 growth;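 optical density of the mix in the first replicate; 0 = DMSO median and -100 = no signal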
rRNA inh HTS RFP: also measured in rRNA inh HTS; calls as there; RFP signal change, %; measured here: RFP humanized mutant strains;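 first replicate; 0 = DMSO median and -100 = no signal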
* = called active by the depositor; i = inactive; ? = inconclusive; . = not tested or not shown; & = joins results of further samples.

SMILES | HNF4A DNA FP | MLL AF4-AF9 inh | rRNA inh HTS | rRNA inh HTS OD600 | rRNA inh HTS RFP | ALR inh | Vif A3G | Ecoli growth | FGF22 binding
COc1cc(/C=C2/NC(=O)N(Cc3ccccc3F)C2=O)cc(OC)c1O | -2.5 | -6.9 | -19.8 | -29.0 | 0.8 | 98.9* | 6.4% | . | i
O=C(C[C@H]1CC[C@H]2[C@@H](COC[C@H](O)CN2C(=O)C2CCOCC2)O1)NCc1ccncc1 | . | -1.2 | 12.2 | 13.9 | 13.1 | . | . | . | i
CC(NC(=O)CCc1nnc(-c2ccc(-c3ccccc3)cc2)o1)c1nccs1 (centres undefined) | 0.1 | -4.3 | 7.4 | 0.6 | -4.5 | -4.0 | -4.1% | 0.658 | i
CCCCOC(=O)CSC1=C(C#N)C(c2cccnc2)C(C(=O)OCC)=C(c2ccccc2)N1 (centres undefined) | -0.7 | -2.3 | -14.7 | -20.0 | -1.7 | 5.0 | . | 0.636 | .
CCOC(=O)CN1C(=O)C(=O)N(Cc2ccccc2F)C1=O | 1.6 | -0.9 | 3.8 | 8.8 | 1.2 | 0.0 | . | 0.658 | i
CCCNC(=O)Nc1ccc2c(c1)C(=O)N(C)C[C@@H](OC)[C@@H](C)CN(Cc1cncnc1)[C@H](C)CO2 | . | -1.6 | 0.1 | 1.1 | -1.4 | . | . | . | i
Cc1ccc(-c2ccc3c(c2)O[C@@H](CN(C)C(=O)Nc2ccc(F)cc2)[C@@H](C)CN([C@@H](C)CO)S3(=O)=O)cc1 | . | 0.7 | -4.3 | -5.4 | 3.1 | . | . | . | i
CC=Cc1ccc2n(c1=O)C[C@@H]1[C@@H](CO)[C@H](C(=O)NCCC)N(Cc3cocn3)[C@H]21 (mixture of isomers) | . | -3.6 | 1.8 | 14.8 | 0.9 | . | . | . | i
Cc1ccc(NS(=O)(=O)c2ccc(Cl)c(C(=O)Nc3cccc(C(=O)O)c3)c2)cc1 | 2.8 | -0.5 | -7.8 | -9.0 | 1.6 | -3.1 | . | 0.612 | i
CCCCNC(=O)CCCCn1c(=S)[nH]c2c([nH]c3ccc(OC)cc32)c1=O | -3.8 | -2.2 | -5.8 | 16.5 | 15.6 | . | -5.6% | 0.592 | i
CCCNC(=O)N(C)C[C@H]1Oc2ncc(-c3ccccc3)cc2C(=O)N([C@H](C)CO)C[C@@H]1C | . | -0.2 | -3.2 | 2.7 | -1.1 | . | . | . | i
CCOc1cc(/C=N/N2C(=O)NC3(CCCCC3)C2=O)cc(Br)c1O | 4.7 | -3.3 | 6.8 | 7.1 | 0.7 | 59.7 | -7.1% | . | i
Cc1cccc(NC(=S)NNC(=O)c2csc3c2CCC(C)C3)c1 (centres undefined) | 1.7 | -11.1 | -40.2* | -32.0* | 1.9* | . | -0.2% | 0.742 | i
Cc1cc(OCC(O)CN2CCc3ccccc3C2)cc(C(C)C)c1 (centres undefined) | -1.9 | -1.0 | -2.3 | -61.7 | 31.5 | -4.7 | -2.0% | . | i
C[C@H](O)C#Cc1cnc2c(c1)C(=O)N([C@@H](C)CO)C[C@@H](C)[C@H](CN(C)C(=O)CN(C)C)O2 | . | -5.0 | 1.6 | 5.6 | -4.7 | . | . | . | i
CC(C)C[C@H]1CNC(=S)N1CC1CCN(CCC23CC4CC(CC(C4)C2)C3)CC1 | 2.1 | 5.8 | 0.7 | -6.6 | 3.7 | . | -6.7% | . | i
CCCc1cc(=O)[nH]c(NCCc2ccccc2)n1 | -0.9 | 0.6 | 6.6 | 8.8 | 1.7 | -3.1 | -3.1% | 0.594 | i
Cc1cc(C(F)(F)F)nn1CC(=O)N(C)C1CCCCC1 | 0.5 | . | . | . | . | -2.4 | -1.6% | 0.722 | .
Cc1ccc(O)c(NC(=O)C2CCCN2C(=O)OCc2ccccc2)c1 (centres undefined) | 1.3 | -1.3 | -1.1 | -1.1 | 2.6 | 87.1* | -0.2% | 0.626 | i
Fc1ccc(-c2nnc(CSc3nnc4ccccn34)o2)cc1 | -2.2 | -1.4 | 0.7 | 12.9 | -2.8 | -3.4 | . | 0.677 | i
Cc1ccc(N2C3=C(C(=O)CC(C)(C)C3)C(c3cn(C)nc3C)C3=C2CC(C)(C)CC3=O)cc1 | -55.6 | -2.2 | 24.9 | -2.2 | 26.8 | -13.2 | . | 0.694 | i
Cc1cc2oc(C(=O)NCCc3ccc(S(N)(=O)=O)cc3)c(C)c2cc1C | -3.6 | -1.9 | 11.0 | 4.6 | -2.1 | -23.1 | 6.0% | 0.675 | i
CC(=O)c1nn(-c2cccc(Cl)c2)cc1C(=O)c1ccco1 | 2.8 | . | . | . | . | 1.5 | 1.1% | 0.766 | .
Cc1cc(NC(=O)c2cc(S(=O)(=O)N3CCCCC3)ccc2C)no1 | -10.1 | -0.7 | 3.0 | 7.2 | -0.1 | 12.6 | . | 0.686 | i
Cc1occc(=O)c1OCc1c(F)cccc1Cl | -1.6 | -0.1 | 15.5 | 6.9 | 0.3 | 2.6 | 8.5% | 0.619 | .
Cc1ccc2nc(C)cc(C(=O)Nc3nccs3)c2c1 | 3.9 | 2.8 | -11.7 | -12.8 | -2.1 | -0.9 | 3.8% | 0.672 | i
CCCNC(=O)Nc1ccc2c(c1)C(=O)N(C)C[C@@H](OC)[C@@H](C)CN(C(=O)C1CC1)[C@@H](C)CO2 | . | 1.2 | 0.1 | 3.3 | -0.3 | . | . | . | i
O=C(Cc1noc2ccccc12)NNC(=S)Nc1ccccc1 | -3.7 | -5.2 | -0.1 | 5.2 | -0.3 | . | -3.0% | 0.708 | .
CC(C)NC(=O)c1nn2c(C(F)(F)F)cc(-c3ccco3)nc2c1Cl | 5.4 | -0.8 | 12.3 | 13.0 | -0.7 | 85.9* | 0.3% | 0.699 | i
C/C(=N\NC(N)=O)c1ccc(Cl)s1 | -7.1 | -7.2 | 9.0 | 6.2 | -2.6 | -4.9 | ? | . | i
O=C(Nc1nc2c(s1)CCCC2)C1CCCN1C(=O)c1cccs1 (centres undefined) | 1.0 | . | . | . | . | -4.8 | 2.9% | 0.659 | .
O=c1cc(-c2ccccc2)nc2nc[nH]n12 | 0.1 | . | . | . | . | -3.7 | 1.1% | 0.711 | .
COc1ccc(CN(C)C[C@H]2Oc3ccc(NC(=O)Nc4ccc(F)cc4)cc3C(=O)N([C@@H](C)CO)C[C@H]2C)cc1 | . | 5.6 | -9.2 | -20.6 | 2.9 | . | . | . | i
Cc1ccc(S(=O)(=O)NCCC(=O)NNc2c(F)c(F)cc(F)c2F)cc1 | -0.1 | -1.6 | -0.4 | -6.2 | -2.2 | . | . | 0.705 | i
C[C@H](CO)N1C[C@H](C)[C@H](CN(C)C(=O)Nc2ccnc(N3CCOCC3)c2)OCc2ccccc2-c2c(n(C)c3ccccc23)C1=O | . | 3.1 | -1.1 | -5.1 | 2.7 | . | . | . | i
COCCCNC(=O)CCn1c(=O)c2ccccc2n(CC(=O)Nc2ccc(C)cc2C)c1=O | 3.8 | . | . | . | . | -1.5 | 20.5%&-1.4% | 0.802 | .
O=S(=O)(c1ccc(Cl)cc1)N1CCN=C1SCc1ccc(Cl)c(Cl)c1 | 1.0 | . | . | . | . | -14.4 | 12.0% | 0.681 | .
Cc1noc(C)c1NC(=O)N(C)C[C@@H]1Oc2ccc(NS(=O)(=O)c3c(C)noc3C)cc2CC(=O)N([C@H](C)CO)C[C@@H]1C | . | -3.5 | 1.0 | -0.7 | 0.0 | . | . | . | i
COc1ccc(S(=O)(=O)Nc2ccc(S(=O)(=O)N3CCOCC3)cc2)cc1 | 1.8 | . | . | . | . | -11.8 | -5.7% | 0.679 | .
CCC(C)NCCOCCOc1ccc(Cl)c(C)c1C (centres undefined) | 5.3 | 4.7 | . | . | . | -2.4 | 24.6% | 0.656 | i
CCCNC(=O)N1C[C@H]2[C@@H](c3ccccc31)[C@H](CO)N2Cc1ccc(OC)cc1 | . | 0.7 | -1.7 | 0.0 | -3.4 | . | . | . | i
CN(C)S(=O)(=O)c1ccc(C(=O)OCC2COC(C)(C)O2)cc1 (centres undefined) | -0.7 | -4.1 | 2.2 | 2.9 | -3.2 | . | . | 0.669 | i
CN1[C@@H]2Cn3c(ccc(-c4cccc(F)c4)c3=O)[C@H]1[C@@H](C(=O)N1CCOCC1)[C@@H]2CO | . | -5.0 | 1.3 | 0.3 | -2.9 | . | . | . | i
Cc1ccc(S(=O)(=O)N2CCN(C(=O)COC(=O)COc3ccc(Br)cc3)CC2)c(C)c1 | 0.8 | -1.0 | 14.9 | 19.8 | 0.0 | . | . | 0.692 | i
O=C(CSc1ncnc2ccccc12)NCC(=O)c1ccccc1 | -2.6 | -11.5 | -6.2 | -3.5 | 2.3 | 96.9* | 1.0% | 0.725 | i
O=C(CNCc1ccccc1)NCCCN1CCCC1=O | 2.5 | 1.3 | 4.0 | 2.4 | 3.8 | -0.6 | -8.9% | 0.696 | i
O=C(NCCN1CCOCC1)C(=O)NCC1CCCO1 (centres undefined) | 1.5 | . | . | . | . | -8.5 | -3.6% | 0.685 | .
O=C(C[C@H]1CC[C@H]2[C@@H](COC[C@H](O)CN2Cc2cccc(C(F)(F)F)c2)O1)NCCc1ccccc1 | . | -10.2 | -23.0 | -65.3 | 7.0 | . | . | . | i
C[C@@H]1CN([C@@H](C)CO)C(=O)c2cc(C#CC3CC3)cnc2O[C@H]1CN(C)C(=O)Nc1ccc(F)cc1 | . | 0.0 | 0.4 | 0.3 | -1.8 | . | . | . | i
c1ccc2nc3c(nc2c1)c1ccccc1n3CCN1CCOCC1 | -1.1 | . | . | . | . | -3.9 | ? | 0.678 | .

(cont.)
SMILES | HNF4A DNA FP | MLL AF4-AF9 inh | rRNA inh HTS | rRNA inh HTS OD600 | rRNA inh HTS RFP | ALR inh | Vif A3G | Ecoli growth | FGF22 binding
CC(c1ccccc1)N1C(=O)c2ccccc2C1O (centres undefined) | 0.9 | 5.1 | 4.2 | -10.8 | -7.5 | -14.1 | -6.4% | 0.774 | i
COC(C(=O)N/N=C/c1ccc(OCC(=O)N2CCOCC2)cc1)c1ccccc1 (centres undefined) | 1.2 | 0.4 | 9.4 | 6.7 | 0.6 | . | . | . | i
Cc1ccc(S(=O)(=O)Nc2ccc3c(c2)CC(=O)N([C@H](C)CO)C[C@@H](C)[C@H](CN(C)Cc2ccc4c(c2)OCO4)O3)cc1 | . | -8.6 | -41.1 | -57.5 | 2.9 | . | . | . | i
COc1cccc(CNC(=O)C2CCN(c3nn4c(=O)cc(C)nc4s3)CC2)c1 | -3.9 | -1.7 | 6.8 | 8.5 | -1.7 | . | . | 0.683 | i
Cn1ccnc1C(O)(c1nnc(-c2ccccc2)o1)C(F)(F)F (centres undefined) | 2.4 | . | . | . | . | -4.4 | 1.8% | 0.697 | .
CO[C@H]1CN(C)C(=O)c2cc(NC(C)=O)ccc2OC[C@@H](C)N(C(=O)c2ccc(F)cc2)C[C@H]1C | . | 3.7 | -0.4 | -4.7 | 1.7 | . | . | . | i
CC(C)(C)c1cccc(P(=O)(c2ccccc2)c2ccccc2)c1O | 2.4 | 4.0 | 10.1 | 3.5 | -4.5 | -6.3 | -7.8% | 0.73 | i
O=C(Nc1ccccc1C(=O)Nc1ccccc1)c1cccs1 | -0.6 | 0.2 | 13.9 | 16.1 | 4.2 | -3.7 | -8.7% | 0.718 | i
CC1CCCCN1CCCn1c(=S)[nH]c2ccccc2c1=O (centres undefined) | 1.8 | . | . | . | . | -4.7 | 3.2% | 0.792 | .

The list is partial; the hit share may differ from the screen's.
